Compound activity: PubChem BioAssay, National Center for Advancing Translational Sciences (NCATS)
Vaccinia mCherry: inhibitors of vaccinia virus infection (mCherry reporter signal). 310,000 tested, 0.63% active. Potency, µM (highest dose often 36.5 µM), without a hit: at the top dose activity change, negative = inhibition, hits mostly inhibitors. Vaccinia virus mCherry reporter infection, fluorescence; about a quarter of the inactives have no number; active = well fitted inhibition curve with a large enough effect; inconclusive = small, poorly fitted or top-dose-only effect; inactive = no such curve, though single readings can be large or run the other way; tested in A549 cells; also: nearly all actives have a fitted effect of over 35% in size; inactives centre near -10
VACV Venus inh: vaccinia inhibition (Venus reporter); Vaccinia virus Venus reporter expression, fluorescence; Potency, µM (top dose mostly 36.5 µM), inactives show at the top dose activity change, negative = inhibition, hits mostly inhibitors; 330,000 tested, 0.46% active; active means well fitted inhibition curve with a large enough effect; inconclusive means small, poorly fitted or top-dose-only effect; inactive means no such curve, though single readings can be large or run the other way; tested in A549 cells; also: nearly all actives have a fitted effect of over 30% in size; inactives centre near -10
The depositor's hits bear a star; i = inactive; ? = inconclusive; . = no result given; & = joins results of further samples; [ ] = remark or other dose. % is scaled to controls: 0 for no effect and ±100 for the full control effect; potency is read from the fitted curve at half-maximal effect.

Values run as follows: Vaccinia mCherry | VACV Venus inh
Cn1c(SCc2ccccc2)nnc1-c1ccncc1
  -2% | -2%
CCOc1ncccc1C(=O)Nc1nc(SC)ns1
  i | -11%
CCOc1ccccc1NC(=O)Cc1coc2cc(C)ccc12
  . | -25%
CN(CC(=O)Nc1ccccc1Br)CC(=O)Nc1ccccc1C(F)(F)F
  -2% | -7%
CCc1nc(N)c(C#N)c(-c2ccccc2OC)c1C
  . | -14%
CCN1C(=O)c2ccccc2S(=O)c2ccc(C(=O)NCc3ccc(C)cc3)cc21 (stereo not given)
  0% | -11%
COc1ccc(CNC(=O)CN2CCC(n3nnc4cc(F)ccc43)CC2)cc1
  -8% | -21%
CC(=O)N1CCCc2cc(S(=O)(=O)N3CCC(C(=O)NCc4ccc(N(C)C)cc4)CC3)ccc21
  -4% | -12%
CCc1ccc(OCC(=O)N/N=C(\C)c2ccc3c(c2)OCCO3)cc1
  i | -14%
COc1ccc(C2NC(=O)CS2)cc1OC (stereo not given)
  -4% | -25%
CC(=O)N(C(C)=O)N1C(=O)/C(=C/c2ccc(Cl)cc2)SC1=S
  i | -29%
COc1ccccc1CCC(=O)N1CCC(n2nccc2NC(=O)C2CCOC2)CC1 (stereo not given)
  -5% | -22%
CC(C)(C)c1ccc(CN(Cc2ccco2)c2cnc(S(C)(=O)=O)nc2C(=O)Nc2ccc(F)cc2)cc1
  -6% | -7%
CC1(NC(=O)NCCCCCCNC(=O)NC2(C)CCS(=O)(=O)C2)CCS(=O)(=O)C1 (stereo not given)
  i | 2%
O=C(CSc1nc(=O)n(CCN2CCOCC2)c2c1CCC2)Nc1ccc(F)cc1F
  -9%[7.34 µM] | -9%[7.34 µM]
O=C(CCSCc1cccc(Cl)c1)NCCc1ccc(Cl)cc1
  -3%&-13% | -10%&-3%
CC(C)C[C@H](CO)Nc1nc(N(C)c2cccc(Cl)c2)c2ncn(C(C)C)c2n1
  -9% | -29%
Cc1ccc(Cl)cc1N1CCN(S(=O)(=O)c2ccc3[nH]c(=O)c(=O)[nH]c3c2)CC1
  i | -8%
CNC1(C(N)=O)CCN(Cc2ccccc2)CC1
  -2% | -4%
COc1ccc(C(=O)C2CCN(CC(=O)Nc3ccc(C)cc3)CC2)cc1
  ? | -12%
O=C(Nc1ccc(OC(F)F)cc1)c1ccccn1
  -9% | -3%
O=C(c1ccccc1NS(=O)(=O)c1ccc(F)cc1)N1CCc2ccccc21
  i | -8%
CC(Oc1ccccc1Cl)C(=O)N1CCN(CCc2ccccn2)CC1 (stereo not given)
  -8% | 0%
COc1cccc(C2CC(c3cccs3)=NN2C(=O)CSC2=NCCS2)c1OC (stereo not given)
  ? | ?
COc1ccc(NC(=S)Nc2ccc3c(c2)c(=O)n(C)n3-c2ccccc2)cc1
  -27% | -2%
O=NC1=C(c2c(O)[nH]c3ccccc23)CCCC1
  6% | -7%
C[n+]1c(-c2ccccc2)cc(CCCCc2cc(-c3ccccc3)[n+](C)c(-c3ccccc3)c2)cc1-c1ccccc1
  1% | 3%
C[C@H]1CN([C@@H](C)CO)S(=O)(=O)c2ccc(Br)cc2O[C@@H]1CN(C)Cc1cccc(F)c1
  ? | ?
Cc1ccc(NC(=O)Cn2c(=O)c3cccn3c3ccccc32)c(Cl)c1
  -17% | -17%
Cc1cc(/C=C(/C#N)c2cccc(Cl)c2)c(C)n1C
  -11% | -10%

In another format: 4 of the compounds above
O=C(CCSCc1cccc(Cl)c1)NCCc1ccc(Cl)cc1
  Vaccinia mCherry: -3%&-13% | VACV Venus inh: -10%&-3%

COc1ccc(NC(=S)Nc2ccc3c(c2)c(=O)n(C)n3-c2ccccc2)cc1
  Vaccinia mCherry: -27% | VACV Venus inh: -2%

COc1ccc(C(=O)C2CCN(CC(=O)Nc3ccc(C)cc3)CC2)cc1
  Vaccinia mCherry: ? | VACV Venus inh: -12%

Cc1cc(/C=C(/C#N)c2cccc(Cl)c2)c(C)n1C
  Vaccinia mCherry: -11% | VACV Venus inh: -10%

Other records.
Values run as follows: Vaccinia mCherry | VACV Venus inh
CCc1ccc(OCC(=O)OCC(=O)c2ccc3c(c2)NC(=O)CO3)cc1
  -18% | -6%
O=C(CCN1C(=O)/C(=C\c2ccccc2)SC1=S)N1CCOCC1
  ? | -19%
COc1cccc(CN2CCC(n3nccc3NC(=O)CCOc3ccccc3)CC2)c1O
  ? | ?
Fc1ccc(NC(=S)N/N=C/c2ccc(F)c(F)c2)cc1
  -20% | -21%
Cc1ccc(-c2nnn(CC(=O)N(Cc3cccs3)C(C(=O)NC3CCCC3)c3ccncc3)n2)cc1 (stereo not given)
  -17% | -20%
Cc1cccc(NC(=O)c2sc(Cl)nc2-c2ccccc2)c1
  . | -11%
O=C(CNC(=O)c1ccccc1)OCC(=O)N1c2ccccc2Sc2ccccc21
  -20% | -8%
Cc1n[nH]c(C)c1CCCOc1ccccc1
  0% | -21%
CCCn1c(NC(=O)C2CCN(C(=O)c3ccccc3C)CC2)nc2ccccc21
  ? | ?
CCOC(=O)c1scc(-c2ccc(C)cc2)c1S(=O)(=O)Nc1ccc(F)c(F)c1
  -7% | 0%
COc1ccc(C2(CNC(=O)c3cccc([N+](=O)[O-])c3)CCOCC2)cc1OC
  -19% | -20%
COc1ccccc1NC(=O)Nc1ccccc1C(=O)NCCCN1CCOCC1
  -15% | -6%
CC1CCc2cc(F)cc3c(O)c(C(=O)NCc4ccco4)c(=O)n1c23 (stereo not given)
  -9% | -11%
Nc1cc(=O)[nH]c(SCC(=O)c2ccc(O)cc2O)n1
  i | -16%
O=C(NCc1ccccc1Cl)c1ccc2c(c1)N(Cc1ccccc1)C(=O)CS2
  -22% | -20%

The listing continues.
Compound | Vaccinia mCherry | VACV Venus inh
Cn1c(=O)[nH]c(=O)c2c1nc(NCc1ccccc1)n2CC(O)c1ccccc1 (stereo not given) | . | -11%
COc1ccc(CCNC(=O)c2ccc(Cn3c(=O)c4ccccc4n(Cc4cccc(C)c4)c3=O)cc2)cc1OC | -13% | -9%
O=C(CCC1CCCN(C(=O)c2ccc3c(c2)OCCO3)C1)NCc1ccccc1F (stereo not given) | i | -9%
Cc1c(Cl)c([N+](=O)[O-])nn1Cc1ccc(C(=O)N/N=C\c2cccc(Br)c2)o1 | . | 28µM*
C=C(C)C(=O)Nc1cccc(C2=NOC3(C2)C[C@H](C(N)=O)N(C(=O)CC)C3)c1 (stereo not given in full) | -5% | -10%
O=C(CCNS(=O)(=O)c1cccc2nsnc12)Nc1ccc2c(c1)OCCO2 | -18% | -16%
O=C(NCc1cc(Cl)cc(Cl)c1)c1csc([C@@H]2C[C@H](O)[C@@H](CO)O2)n1 | -2% | -17%
CSc1nc(C)cc(OCCNS(=O)(=O)c2cc(C)ccc2C)n1 | -7% | -14%
CCC(=O)N1CCc2cc(S(=O)(=O)CCC(=O)Nc3ccc(C)c(F)c3)ccc21 | -23% | -25%
CS(=O)(=O)c1sc2nc(-c3ccccc3)cc(-c3ccccc3)c2c1N | ? | -28%
O=[N+]([O-])c1ccccc1OCCCNCc1ccccc1 | -21% | -6%
Cc1cc(C)c(S(=O)(=O)N(C2=NCCS2)S(=O)(=O)c2c(C)cc(C)cc2C)c(C)c1 | . | -7%
OC[C@@H]1CN(Cc2ccc(Cl)cc2)C[C@H](n2cnc3c(Nc4ccccc4)ncnc32)O1 | ? | -20%
O=C(Cn1cncn1)NCc1cc(F)ccc1F | i | -15%
N#Cc1cccc(NC(=O)c2cc(C3CCCCN3C(=O)C3CC3)on2)c1 (stereo not given) | 4% | -11%
COc1ccc(N2CCN(c3nc4ccccc4nc3NS(=O)(=O)c3ccccc3)CC2)cc1 | . | -14%
O=C1CC(c2cccs2)Sc2nc3ccccc3n21 (stereo not given) | -7% | -5%
COc1ccc(C(=O)N(c2ccc(OC)cc2)S(=O)(=O)c2ccc3c(c2)n(C)c(=O)n3C)cc1 | -1% | 3%
Cc1ccccc1-c1nnc(CN2CCN(C(=O)c3ccco3)CC2)o1 | -12% | -14%
CCOc1ccc(Oc2ccc(Cl)cc2N)cc1 | -12% | -25%
Cc1ccc(OCCC(=O)N2CCN(c3ccc(O)cc3)CC2)cc1 | ? | -9%
C=CCn1c(O)c(N=O)c2ccccc21 | -25% | -10%
Cc1ccc(S(=O)(=O)NC2CC(C)(C)N(O)C(C)(C)C2)cc1 | -7% | -2%
CCOc1cc(C2C(C(=O)c3ccco3)=C(O)C(=O)N2Cc2ccccc2)ccc1O (stereo not given) | -1% | 0%
C=CCNC(=S)NCC | -13% | -4%
C=CCn1c(=O)c2ccc(C(=O)NCc3ccccc3)cc2n(Cc2cccc(Cl)c2)c1=O | i | -21%
O=C(COC(=O)c1ccccc1)Nc1cccc(S(=O)(=O)NC2=NCCCCC2)c1 | -10% | -11%
CCNC(=O)NC(=O)CSc1ccc(NC(C)=O)cc1 | -12% | 0%
CS(=O)(=O)N(CC(=O)N1CCc2ccccc2C1)Cc1ccccc1 | -22% | -16%
COc1cccc(NC(=O)Cn2c(=O)n(CCCC(=O)NCc3ccco3)c(=O)c3ccccc32)c1 | . | -6%
Cc1ccccc1OCC(=O)NCC(=O)OCC(=O)c1ccc(Br)cc1 | 23% | 9%
Cc1ccc(CCNS(=O)(=O)c2ccc3c(c2)CC(C)N3C(=O)C2CCC2)cc1 (stereo not given) | -14% | -9%
Cc1cccc(NC(=O)c2ccc(S(=O)(=O)NCc3cccnc3)cc2)c1 | -22% | -14%
O=C(CCNC(=O)c1ccc([N+](=O)[O-])cc1)Nc1nc2ccccc2[nH]1 | -12% | -6%
Cn1ncc(Br)c1C(=O)NC1CCCCC1 | i | 0%
Cc1ccc(S(=O)(=O)NCCc2nc3ccccc3[nH]2)cc1 | -15% | -3%
CC(C)(C)c1ccc(SCC(N)=O)cc1 | . | -28%
OCCN1CCN(Cc2nc(-c3cccc(Cl)c3)no2)CC1 | i | -7%
CCOC(=O)c1cnn(-c2ccccc2)c1NC(=O)CSc1nnc(-c2cccs2)n1CC | . | -25%
COc1cccc(CNC(=O)CSc2ccc(-c3ccco3)nn2)c1 | -11% | -9%
CCOC(=O)CSc1nnc(CNc2ccc(Cl)cc2)n1-c1ccccc1 | i | -6%
CC1CCN(CCCNC(=O)Cn2ncc3c([nH]c4ccccc43)c2=O)CC1 | -15% | -16%
OC[C@@H]1CN(Cc2ccccc2)C[C@H](n2cnc3c(NC4CCCC4)ncnc32)O1 | 31%[activator] | 11%
CCc1cc2ccc(C)cc2nc1SCC(=O)N1CCN(C(=O)c2ccco2)CC1 | -2% | -23%
CCCCN1Cc2cc(C(=O)c3cc(F)ccc3O)cnc2NC1=O | . | -21%
Cc1ccc(NC(=O)Cn2c(=O)n(Cc3ccc(C(=O)NCc4ccc5c(c4)OCO5)cc3)c(=O)c3ccccc32)cc1 | -5% | -3%
CCNC(=S)NCCN1CCOCC1 | i | -8%
COc1ccc(/C=C/C(=O)OCC(=O)N2c3ccccc3CC2C)cc1OC (stereo not given) | -2% | -9%
O=C(CN1CCN(S(=O)(=O)c2ccccc2F)CC1)NC1CCCC1 | -24% | -4%
N#Cc1c2ccc(OCC(=O)NCc3ccco3)cc2n2ccccc12 | -20% | 8%

Next section
Compound | Vaccinia mCherry | VACV Venus inh
NC(Cc1ccc(OC(F)F)cc1)C(=O)O (stereo not given) | i | -12%
COc1ccc(-c2coc3cc(O)cc(O)c3c2=O)cc1 | -13%&17% | -6%&13%
CCCCc1ccc(NC(=O)C2CCCC2)cc1 | -6% | 12%
Cn1ccnc1SCc1cc(=O)[nH]c2ccccc12 | -14% | -8%
CCOC(=O)CC1ON(C)C(=O)N1c1ccc([N+](=O)[O-])cc1 (stereo not given) | . | -18%
COc1ccccc1N1CCN(S(=O)(=O)c2ccc(Cl)s2)CC1 | -13% | -3%
CCOC(=O)c1sc(NC(NC(=O)c2ccco2)(C(=O)OC)C(F)(F)F)nc1C (stereo not given) | . | -22%
OC1(c2cccnc2)CCN(Cc2nnnn2Cc2ccccc2)CC1 | -5% | -2%
COc1ccc(OC)c(NC(=O)NNC(=O)COc2ccc([N+](=O)[O-])cc2)c1 | i | -10%
O=C(Cn1nnc(-c2ccccc2)n1)N1CCN(c2ccc(F)cc2)CC1 | 0% | -3%
Cc1cc2oc(C(=O)N(Cc3ccccc3)C3CCS(=O)(=O)C3)c(C)c2cc1C (stereo not given) | -21% | -21%
O=C(CSc1ncc(-c2ccc(F)cc2)[nH]1)Nc1cccc(O)c1 | i | -22%
COc1ccc(-c2noc(CN(C(=O)Cc3ccc(C)cc3)C(C)C)n2)cc1 | -15% | -6%
O=C(Cn1c(=O)n(CC2CCCO2)c(=O)c2ccccc21)Nc1ccc(F)cc1F (stereo not given) | -5% | 1%
Cc1ccc(N2C(=O)c3cccc(Oc4ccc(Cl)cc4)c3C2=O)c(C)c1 | i | -11%
COc1cc2c(cc1OC)CN(C(=O)c1cc(S(=O)(=O)N3CCCCC3)ccc1Cl)CC2 | -19% | -18%
O=[N+]([O-])c1c(C(Cl)Cl)nn(-c2ccccc2)c1N1CCOCC1 | i | -8%
N#Cc1c(-c2cccc(Br)c2)cc(-c2cccnc2)nc1N | i | -16%
COc1cccc2c1cc1c(=O)n(CC(=O)N3CCN(c4cc(Cl)ccc4C)CC3)nc(C)n12 | -20% | -16%
